Resorufin autofl – qHTS Assay for Spectroscopic Profiling in Resorufin Spectral Region; Compound fluorescence, resorufin region 547/598 nm, buffer; stronger effect = higher value; max dye-equivalent concentration, M; 59,000 compounds, 0.04% hits; AID 588, 2007; active = above 10 nM dye equivalent; inconclusive = 1 to 10 nM; inactive = 1 nM or less; a few of its hits are not listed in these tables; also: highest value over a series up to 38 µM
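Compounds in 100 mM Tris, pH 8.0, incubated 15 min at room temperature, then fluorescence read at 547 nm excitation/598 nm emission. Signal converted to dye-equivalent concentration via an on-plate six-point resorufin standard curve, per compound concentration.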
A647 fluor – qHTS Assay for Spectroscopic Profiling in A647 Spectral Region | Compound fluorescence, A647 channel (570/671 nm), Tris buffer | max dye-equivalent concentration, M | 59,000 tested, under 10 active; active means above 1 µM dye equivalent; inconclusive means 0.1 to 1 µM; inactive means 0.1 µM or less;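 also: values scaled relative to a standard on each plate; highest value over a series up to 38 µM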
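Tris 100 mM pH 8.0; cpd + A647 stds pin-transferred; 15 min RT; CCD imager, ex 570/em 671. Output = A647-equivalent conc. per cpd conc.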
AID923 – qHTS Assay for Allosteric/Competitive Inhibitors of Caspase-1: Spectroscopic Profiling in AFC Spectral Region. compound fluorescence, AFC spectral region (405/520 nm); almost no hit is shown here. Potency, µM (titrated, usually from 57.5 µM), inactives show top-dose fluorescence increase, actives largely listed as activators. 75,000 compounds, 1.1% hits; active = well fitted activation curve with a large enough effect; inconclusive = small, poorly fitted or top-dose-only effect;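 also: potency is read from the fitted curve at half-maximal effect; 0% is about no effect; scaled to a free AFC standard on each plate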
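Titrations up to 57 uM read every 20 sec for 3 min (405/520 nm) with 50 nM caspase 1 and 5 uM Ac-WEHD-AFC, pH 7.5 HEPES buffer. Fluorescence-vs-time intercept gave baseline, scaled against on-plate AFC standard.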
TSHR ag – qHTS Assay for Agonists of the Thyroid Stimulating Hormone Receptor | Thyrotropin receptor (Homo sapiens), P16473 | HEK293-CNG-TSHR cells (CNG channel as cAMP sensor), membrane potential dye, cAMP | Potency, µM (series often up to 57.1 µM), for the others: at the highest dose activation, actives largely listed as activators | 73,000 compounds, 0.48% hits; active = well fitted activation curve of enough size with the parental cells flat; inconclusive = any curve in the parental cells; inactive = parental cells flat and receptor cells flat or falling; also: potency is read from the fitted curve at half-maximal effect; % of control where 0% means no effect; weak receptor curves with flat parental cells got no call and are not listed
Target sequence (P16473 whole entry, looked up): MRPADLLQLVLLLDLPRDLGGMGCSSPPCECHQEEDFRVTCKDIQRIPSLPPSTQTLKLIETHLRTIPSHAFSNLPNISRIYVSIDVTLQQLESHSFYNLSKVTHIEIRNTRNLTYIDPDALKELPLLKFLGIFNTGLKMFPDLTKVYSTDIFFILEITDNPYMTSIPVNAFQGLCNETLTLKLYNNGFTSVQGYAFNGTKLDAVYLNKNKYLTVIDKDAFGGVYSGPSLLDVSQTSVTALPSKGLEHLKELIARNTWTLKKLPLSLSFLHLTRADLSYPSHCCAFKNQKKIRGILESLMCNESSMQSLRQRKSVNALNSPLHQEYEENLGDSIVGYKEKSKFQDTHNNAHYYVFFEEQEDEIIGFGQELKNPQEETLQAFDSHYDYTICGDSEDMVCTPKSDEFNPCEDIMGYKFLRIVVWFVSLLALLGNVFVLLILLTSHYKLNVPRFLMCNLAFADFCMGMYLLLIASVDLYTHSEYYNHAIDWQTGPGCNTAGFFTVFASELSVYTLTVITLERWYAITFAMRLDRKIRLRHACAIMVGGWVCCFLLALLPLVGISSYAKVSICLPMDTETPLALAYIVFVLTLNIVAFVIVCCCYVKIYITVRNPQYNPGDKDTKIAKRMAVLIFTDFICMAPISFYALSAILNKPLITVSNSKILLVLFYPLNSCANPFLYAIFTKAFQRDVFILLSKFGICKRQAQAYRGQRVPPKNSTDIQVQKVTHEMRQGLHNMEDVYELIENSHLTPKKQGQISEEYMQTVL
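HEK 293 cells stably expressing TSHR and a modified CNG channel, with CNG-only parental cells as counterscreen, were preloaded 60 min at room temperature with membrane potential dye containing 100 uM RO 20-1724. Compound exposure was 30 min, and depolarization was read as fluorescence at 590 nm.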
A488 fluor – qHTS Assay for Spectroscopic Profiling in A488 Spectral Region; compound autofluorescence, A488 spectral region, dye equivalency; stronger effect = higher value; max dye equivalency, M; 59,000 compounds, 0.1% hits; active = above 10 nM dye equivalent; inconclusive = 1 to 10 nM; inactive = 1 nM or less; about half of its hits are not listed in these tables;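 also: highest value over a series up to 38 µM; compound alone in buffer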
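Read-out: relative fluorescence at 480/540 nm, expressed as Alexa 488 dye-equivalent concentration from a six-point A488 standard included per plate. Conditions: 100 mM Tris, pH 8.0; 15 min incubation, room temperature.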
Starred values were filed as active, the others as inactive; i = inactive; ? = inconclusive; . = no result given; [ ] = remark or other dose.

Results follow in this order: Resorufin autofl	A647 fluor	AID923	TSHR ag	A488 fluor
O=C(Nc1nc(-c2ccc3c(c2)OCCO3)cs1)c1ccc(S(=O)(=O)N2CCCCC2)cc1
→ i	1e-09	7.8%	?	i
Cc1ccc(S(=O)(=O)Nc2cccc3ncccc23)s1
→ i	1e-09	2.4%	20%	i
O=C(CSc1nc2ncccc2[nH]1)c1ccc(F)cc1
→ i	8.9e-09	0.4%	-2%	i
O=C(CSc1nc2c(c(=O)n1-c1ccc(F)cc1)SCC2)NCc1ccco1
→ i	6.6e-09	1.1%	?	i
CCN(CC)S(=O)(=O)c1csc(C(=O)Nc2ccccn2)c1
→ i	3.2e-08	-0.3%	-3%	i
Cc1cc(N)n(-c2nc(-c3cccnc3)nc3ccccc23)n1
→ i	1e-09	0.1%	0%	i
COc1ccc(-c2cc(=O)oc3cc(OCc4nn[nH]n4)ccc23)cc1
→ i	1e-09	3.7%	12%	i
O=C(COC(=O)c1n[nH]c2ccccc12)NC(=O)NC12CC3CC(CC(C3)C1)C2
→ i	9.5e-09	0.0%	-3%	i
O=C1C2C3C=CC(C3)C2C(=O)N1c1ccc2c(c1)CCC2 (stereo not drawn)
→ i	2.1e-09	0.1%	?	i
c1nc(NC2CCCCCC2)c2[nH]cnc2n1
→ .	.	-2.4%	-6%	.
Cc1nc2ncnn2c(N2CCN(c3cccc(C(F)(F)F)c3)CC2)c1C
→ i	2.5e-09	0.1%	?	i
N#CC1=C(c2ccccc2)N=P(N2CCOCC2)(N2CCOCC2)N=C1N1CCOCC1
→ i	4.3e-09	-1.1%	0%[11.4 µM]	i
CCn1c(SCC(=O)Nc2ccccc2C)nnc1-c1ccccc1O
→ i	1.1e-09	-0.6%	-13%	i
Cc1nc2nc[nH]n2c(=O)c1NC(=O)c1cccc(OCC(C)C)c1
→ i	1.8e-08	-1.6%	9%	i
COc1ccc(-c2c(C)oc3c(CN4CCN(C)CC4)c(O)ccc3c2=O)cc1
→ .	.	0.5%	-1%	.
CC1CCN(C(=O)C2CC(c3ccc(F)cc3)=NO2)CC1 (stereo not drawn)
→ i	3.2e-09	-1.8%	-3%	i
CC(=O)NC(CC(C)C)C(=O)NC(=O)NCc1ccccc1 (stereo not drawn)
→ .	.	-0.5%	-5%[11.4 µM]	.
CCCN1CCN(CCCNC(=O)C2CCCN(c3nnc(-n4cccc4)s3)C2)CC1 (stereo not drawn)
→ i	1e-09	-1.3%	0%	i
Cn1nnc(NC(=O)CSc2nnnn2-c2ccc(F)cc2)n1
→ i	2.6e-08	-1.3%	0%	i
COc1ccc(N2CCN(CC(=O)N3CCC(C)CC3)CC2)cc1
→ i	1e-09	1.3%	-4%	i
Cc1cc(C(=O)OCc2nnc(-c3ccccc3)o2)c(C)n1-c1ccccc1
→ i	2.1e-08	2.7%	?	i
O=C(Cc1nc(-c2ccc(Br)s2)cs1)NCCN1CCOCC1
→ i	7.6e-09	1.8%	0%	i
CCOC(=O)c1ccc(COC(=O)c2cc3ccccc3oc2=O)o1
→ i	6.3e-09	-1.2%	?	i
Cc1nn2c(-c3ccco3)nnc2c2ccccc12
→ i	3.1e-09	-0.8%	24%	i
Cn1c(CSc2nc3ccccc3s2)n[nH]c1=S
→ .	.	-2.1%	-1%	.
Cc1cccc(Nc2n[nH]c(=S)s2)c1C
→ i	6.3e-09	-0.7%	5%	i
CCc1nccn1S(=O)(=O)c1ccc2ccccc2c1
→ .	.	3.4%	?	.
O=C(CCn1cccc1)Nc1cc(F)ccc1F
→ .	.	0.0%	-3%	.
CC(C)OC(=O)C(C#N)c1nc2ccccc2nc1N1CCN(Cc2ccccc2)CC1 (stereo not drawn)
→ i	1e-09	4.3%	-19%	i
Cc1cc(Cl)ccc1N1C(=O)CC(SCCC(=O)O)C1=O (stereo not drawn)
→ i	1e-09	-1.1%	2%	i
CC1CCCCC1NS(=O)(=O)c1ccc(S(=O)(=O)N2CCCC2)cc1 (stereo not drawn)
→ i	2.5e-08	0.1%	28%	i
CSc1nc(C)cc(OCC#N)n1
→ i	3.6e-08	-1.6%	8%	i
Cc1onc(-c2ccccc2)c1C(=O)NC(CC(=O)O)c1ccc(OC(C)C)cc1 (stereo not drawn)
→ i	2.3e-08	0.7%	4%	i
COC(=O)CSc1nnc(C)n1-c1cccc(C#N)c1
→ i	4.1e-09	0.7%	-1%	i
O=c1nc(N2CCOCC2)ccn1-c1nc(-c2ccccc2)oc1-c1ccccc1
→ i	1e-09	-1.2%	6%	i
COc1ccc(N2CC(C(=O)Nc3ncccc3C)CC2=O)cc1 (stereo not drawn)
→ i	1e-09	-1.6%	2%	i
C[C@]12CCC3c4ccc(OCC(=O)O)cc4CCC3C1CCC2=O (stereo partly drawn)
→ i	1.5e-08	-1.0%[11.5 µM]	-1%[11.4 µM]	i
Cc1ccc(NC(=O)CN(C)C(=O)CCCN2C(=O)c3ccccc3C2=O)cc1
→ i	1e-09	0.7%	-4%	i
O=C(CN1CCOc2ccccc21)NCc1ccc(F)cc1
→ .	.	1.0%	?	.
CCOC(=O)c1cc(-c2nnc(-c3ccc(Oc4ccccc4)cc3)o2)c(C)nc1C
→ .	.	1.0%	6%	.
O=C(NCc1ccco1)C(c1ccncc1)N(CCC1=CCCCC1)C(=O)Cn1nnc2ccccc21 (stereo not drawn)
→ i	1e-09	-1.6%	?	i
Cc1cccc(COc2ccc(/C(O)=C3\C(=O)C(=O)N(CCN(C)C)C3c3ccncc3)cc2)c1 (stereo not drawn)
→ i	2.1e-08	.	.	i
COC(=O)CN(c1nc(C)c(Cl)c(OC)n1)S(=O)(=O)c1ccc(C)cc1
→ i	5.5e-08	.	.	i
CCOC(=O)C1=C(c2ccccc2)N=C2SCC(=O)N2C1c1ccc2c(c1)OCO2 (stereo not drawn)
→ .	.	4.6%	2%	.
CCOC(=O)c1ccccc1NC(=O)c1ccccc1N(C)S(C)(=O)=O
→ i	2.6e-08	1.5%	9%	i
CCOC(=O)c1[nH]c(C)c(C(=O)NCCc2ccc(OC)cc2)c1C
→ i	1.7e-08	1.2%	5%	i
COc1ccc2[nH]cc(CCNc3ccnc(-c4ccccc4C(F)(F)F)n3)c2c1
→ i	1.5e-09	-0.6%	-3%	i
CCOC(=O)c1c(C)oc2c1c(/C=N/c1ccccn1)c(O)c1ccccc12
→ i	1e-09	9.9%	4%	i
CCOC(=O)N1CCN(c2ncnc3c2cnn3-c2ccc(Cl)cc2)CC1
→ i	1e-09	2.1%	14%	i
COc1ccc(CCn2c(SCC(=O)Nc3cc(C)on3)nc3ccsc3c2=O)cc1OC
→ i	2.1e-08	2.3%	?	i
Cc1nn(C)c(C)c1S(=O)(=O)N1CCC(C(=O)NC(C)c2ccccc2)CC1 (stereo not drawn)
→ .	.	2.0%	0%	.
O=C(c1ccc(=O)oc1)N1CCN(C(c2ccccc2)c2ccccc2)CC1
→ i	1e-09	.	.	i
Cc1ccc(S(=O)(=O)NCC2CCC(C(=O)NCc3ccco3)CC2)cc1 (stereo not drawn)
→ i	1.8e-08	2.8%	10%	i
O=S(=O)(NC1CCN(Cc2ccccc2)CC1)c1cccc2cccnc12
→ i	2.7e-09	0.0%	11%	i
CCOc1cc(C)c(Cl)cc1S(=O)(=O)N1CCCC1
→ i	1e-08	1.8%	19%	i
CC1CCCCC1NC(=O)CN1CCC(O)(c2ccc(F)cc2)CC1 (stereo not drawn)
→ i	6.2e-09	-0.7%	-3%	i
CSc1c(CC(=O)NCCO)n(C)c2ccccc12
→ i	6.9e-09	-2.5%	0%[11.4 µM]	i
COC(=O)c1ccc2c(=O)n(Cc3ccc4c(c3)OCO4)c(SCC(=O)N3CCCC3)nc2c1
→ i	2e-08	0.7%	?	i
Cc1n[nH]c(C)c1S(=O)(=O)N1CCCC(C(=O)N2CCN(c3ccc(Cl)cc3)CC2)C1 (stereo not drawn)
→ i	1.2e-08	0.3%	5%	i
COc1ccccc1NS(=O)(=O)c1ccc(NC(=O)CCNC(=O)c2ccco2)cc1
→ i	1e-09	-0.5%	-2%	i

Next results:
Compound	Resorufin autofl	A647 fluor	AID923	TSHR ag	A488 fluor
O=C1COc2ccc(C(=O)COC(=O)c3ccc4ccccc4n3)cc2N1	i	1e-09	11%	-6%	i
CCC(=O)Nc1ccc2nc(C3CC3)n(Cc3ccccc3)c(=O)c2c1	i	4.5e-08	-0.1%	4%	i
COC(=O)[C@@]1(Cc2ccc(F)cc2)[C@H]2c3cc(C(=O)N(C)C)n(Cc4ccsc4Br)c3C[C@H]2CN1C(=O)c1ccccc1	.	.	0.2%	?	.
CC(C)CNC(=O)CN(C1CCCCC1)S(C)(=O)=O	i	1e-09	0.0%	?	i
O=C(Oc1ccc2c(c1)OCC2=O)c1ccccc1	i	1e-09	0.2%	-1%	i
Cc1occc1-c1nnc(SCC(=O)NCc2cccs2)n1CC1CCCO1 (stereo not drawn)	i	1.6e-09	0.1%	0%	i
OC1(CN2CCOCC2)C2CN3CCN(C2)CC1(c1ccccc1)C3 (stereo not drawn)	.	.	-1.7%	3%[11.4 µM]	.
CCOc1cccc(NC(=O)C2CCCN(S(=O)(=O)c3ccc(-n4cnnn4)cc3)C2)c1 (stereo not drawn)	i	5.7e-09	1.0%	.	i
C[C@H](NC(=O)OC(C)(C)C)C(=O)NCC1CCC(C(=O)O)CC1 (stereo partly drawn)	i	2.6e-09	1.2%	5%	i
COc1cccc(C(=O)N2CCN(S(=O)(=O)Cc3ccccc3)CC2)c1	i	4.5e-09	1.2%	-5%	i
CCC(C)NC(=O)c1c(N)n(/N=C/c2ccccn2)c2nc3ccccc3nc12 (stereo not drawn)	i	2.6e-08	0.9%	11%	i
O=C(Cn1cnc2c(cnn2-c2ccccc2)c1=O)NCc1ccccc1	i	5.2e-08	2.0%	7%	i
COc1ccc(Cn2nnnc2C(c2ccc(F)cc2)N2CCN(C3CCCC3)CC2)cc1 (stereo not drawn)	i	1e-09	1.1%	?	i
C=C(C)C(O)/C=C/C=C/c1ccccc1 (stereo not drawn)	.	.	0.2%[11.5 µM]	-2%[11.4 µM]	.
COc1cccc(-c2nc(CS(=O)CC(=O)NCc3ccc4c(c3)OCO4)c(C)o2)c1 (stereo not drawn)	.	.	-2.4%	11%	.
CC1(C)NC(=O)N(CC(O)CNC23CC4CC(CC(C4)C2)C3)C1=O (stereo not drawn)	i	5e-09	-0.7%	4%	i

Reprinted from the listing (5 entries):
Compound	Resorufin autofl	A647 fluor	AID923	TSHR ag	A488 fluor
O=C1COc2ccc(C(=O)COC(=O)c3ccc4ccccc4n3)cc2N1	i	1e-09	11%	-6%	i
CCC(=O)Nc1ccc2nc(C3CC3)n(Cc3ccccc3)c(=O)c2c1	i	4.5e-08	-0.1%	4%	i
COC(=O)[C@@]1(Cc2ccc(F)cc2)[C@H]2c3cc(C(=O)N(C)C)n(Cc4ccsc4Br)c3C[C@H]2CN1C(=O)c1ccccc1	.	.	0.2%	?	.
CC(C)CNC(=O)CN(C1CCCCC1)S(C)(=O)=O	i	1e-09	0.0%	?	i
O=C(Oc1ccc2c(c1)OCC2=O)c1ccccc1	i	1e-09	0.2%	-1%	i

Compound activity: PubChem, National Center for Advancing Translational Sciences (NCATS)

These rows are one share of the data, so the mix of outcomes need not match the whole.
